# Screening data from PubChem BioAssay.
# Vaccinia mCherry – vaccinia inhibition (mCherry reporter); Vaccinia virus mCherry reporter infection, fluorescence; about a quarter of the inactives have no number; Potency, µM (series often up to 36.5 µM), for inactives: at the top dose activity change, negative = inhibition, hits mostly inhibitors; hit rate 0.63% among 310,000; AID 720579; active = well fitted inhibition curve with a large enough effect; inconclusive = small, poorly fitted or top-dose-only effect; inactive = no such curve, though single readings can be large or run the other way; tested in A549 cells; also: nearly all actives have a fitted effect of over 35% in size; inactives centre near -10
# Vaccinia Venus – vaccinia inhibition (Venus reporter) | Vaccinia virus Venus reporter expression, fluorescence | Potency, µM (highest dose often 36.5 µM), for inactives: at the highest dose activity change, negative = inhibition, most hits filed as inhibitors | hit rate 0.46% among 330,000 | AID 720580; active means well fitted inhibition curve with a large enough effect; inconclusive means small, poorly fitted or top-dose-only effect; inactive means no such curve, though single readings can be large or run the other way; tested in A549 cells; also: nearly all actives have a fitted effect of over 30% in size; inactives centre near -10
# An asterisk follows results filed as active; i = inactive; ? = inconclusive; / = no result given; & = joins results of further samples; [ ] = another dose, or the depositor's remark. % is scaled to controls: 0 for no effect and ±100 for the full control effect; potency is read from the fitted curve at half-maximal effect.
SMILES,Vaccinia mCherry,Vaccinia Venus
CCCOc1cccc(C(=O)Nc2ccccc2C(=O)N2CCN(C)CC2)c1,-17%,-14%
O=c1cc(-c2ccccc2O)nc(-c2ccccc2)[nH]1,-14%,-7%
O=C(C1=C[C@H](c2ccc(Br)cc2)C[C@H](OCCCCO)O1)N1CCOCC1,-11%,-17%
C=C1CC(COc2cc(=O)oc3ccccc23)(c2ccccc2)OC1=O (configuration not stated),?,?
O=C(COC(=O)CN=C1NS(=O)(=O)c2ccccc21)Nc1ccccc1OC(F)F,-14%,-11%
CC1(O)N(Cc2ccccc2)C(=O)OC12CCCCC2 (configuration not stated),i,4%
CCc1cc(C(=O)NC(C)C2CCCO2)cs1 (configuration not stated),-1%,-2%
O=C(COC(=O)C1CCC(=O)N1)Nc1cc(Cl)ccc1Cl (configuration not stated),-6%,-6%
CCCCOC(=O)CSc1nnc(-c2ccc(C)cc2)o1,-6%,-3%
COCCCN1C(=O)c2ccc(C(=O)NCc3ccco3)cc2C1=O,/,-13%
Cc1ccc2cc(CCNC(=O)C(C)C)c(=O)[nH]c2c1C,?,-4%
COC(=O)c1ccc(-c2sc3nc(N4CCOCC4)c4c(c3c2N)CC(C)(C)OC4)o1,i,-3%
O=C(Cc1ccc(Br)cc1)Nc1ccccc1Sc1ccccc1,-8%,-25%
COc1ccc(CCNC(=O)C(=O)NCC2OCCN2S(=O)(=O)c2ccc3c(c2)OCCO3)cc1 (configuration not stated),-7%,-24%
CC1(C)Cc2c(c(-c3ccco3)[nH]c(=O)c2C#N)CO1,i,3%
Cc1ccc(C2CC(=O)C(C=NCCN3CCN(C(=O)Cc4ccccc4)CC3)=C(O)C2)cc1 (configuration not stated),-13%,-9%
COc1cc(NC(=O)c2ccccc2)c(C)cc1NC(=O)CC(CC(=O)O)c1ccccc1 (configuration not stated),i,-2%
CCOc1cc(-c2ccc(OC(=O)c3ccccc3F)cc2)cc(=O)c2c(C)oc(C)c12,-4%,-8%
COc1ccc(NC(=O)O/N=C/c2ccc(Br)cc2)cc1,1%,-7%
COc1ccc2c(c1)-c1nc(-n3ncc(C(=O)N(C)C(C)c4ccon4)c3C3CC3)ncc1CC2 (configuration not stated),?,?
Cc1cccc(OC(=O)Cn2c(C(F)(F)F)nc3ccccc32)c1,-8%,-3%
CC1CN(C(=O)c2ccc(COCC(F)(F)F)o2)CC(C)O1 (configuration not stated),-13%,-5%
CCCc1c(C(=O)N/N=C/c2ccc(OCc3ccc(F)cc3)cc2)nnn1-c1nonc1N,i,-4%
CCOc1ccc(N2CC(C(=O)Nc3ccc(S(=O)(=O)Nc4nccs4)cc3)CC2=O)cc1 (configuration not stated),2%,0%
COc1cc(CCN=Cc2ccccc2O)c([N+](=O)[O-])cc1OC,-3%,0%
CCCN(CCC)CCCNC(=O)c1cc2c(=O)n(C)c3ccccc3c2n1C,-8%,-13%
CS(=O)(=O)c1nc(-c2ccc(Br)cc2)n[nH]1,i,-6%
CCOC(=O)c1c[nH][nH]c1=O,i,-6%
CC(=O)c1ccc(Nc2nc(C(C)N)cs2)cc1 (configuration not stated),33%[activator],1%
COCc1cc(=O)n2[nH]c(C)c(-c3ccc(Cl)cc3)c2n1,10µM*,?
Cc1cccc(C(=O)NNC(=O)C23CC4CC(CC(C4)C2)C3)c1O,-19%,-15%
CCCc1nc(SCC(=O)Nc2nnc(SCC)s2)c2c(=O)n(C)c(=O)n(C)c2n1,-14%,-28%
Cc1c(N)cccc1N,-6%,-10%
Cc1cc(C)cc(N(CC(=O)NC2CCCC2)C(=O)CCC(=O)Nc2cc(C)on2)c1,-14%,-10%
C=CCn1c(SCC#N)nc2c(c1=O)C(C)(C)Cc1ccccc1-2,/,-27%
O=C(COC(=O)/C=C/c1ccc(C(F)(F)F)cc1)NCCC1=CCCCC1,i,-12%
O=C1CC(Cc2ccc(Cl)cc2)C(=O)N1c1ccccn1 (configuration not stated),-11%,-7%
Cc1cccc(C(=O)Nc2cc(C)ccc2NC(=O)COc2ccccc2)c1,/,-12%
COc1ccc(C(CNC(=O)c2ccc3c(c2)CCC3)N(C)C)cc1 (configuration not stated),?,24%
O=[N+]([O-])c1ccccc1S(=O)(=O)N1CCN(c2nc(-c3ccccc3)nc3ccccc23)CC1,-11%,-14%
CCOC(=O)c1cccc(NS(=O)(=O)c2cc(Br)cc3c2N(C(=O)C2CC2)CC3)c1,-10%,-12%
Cc1cccn2c(=O)c3cc(C(=O)NCCc4ccccc4)c(=N)n(CCCn4ccnc4)c3nc12,-12%,-6%
CC(C)COc1ccc(C(=O)N(Cc2ccc(N(C)C)cc2)Cc2ccco2)cc1,-6%,-7%
Cn1c(=O)[nH]c(=O)c2c1nc(SCCN1CCCCC1)n2CCCc1ccccc1,-7%,-7%
O=C(Nc1ccccn1)C1CCN(C(=O)Nc2ccccc2)CC1,-11%,-5%
CN(C)C(=O)N1CCC(C(=O)N2CCCC(C(=O)c3cccc4ccccc34)C2)CC1 (configuration not stated),-18%,-10%
CC1CCCCN1C(=O)c1ccc(S(=O)(=O)N2CCCCC2C)cc1 (configuration not stated),/,-17%
COc1ccc(CCN2C(=O)CC(NNC(=O)c3cccc(O)c3)C2=O)cc1 (configuration not stated),-3%,-12%
CCn1c2ccccc2c2cc(NC(=O)COC(=O)c3ccccc3Br)ccc21,?,?
O=C1C=C(c2ccnc3cc(Cl)ccc23)C[C@@H](c2ccc3c(c2)OCO3)C1,?,?
COc1ccccc1-c1csc(C(NC(C)=O)c2cccc(F)c2)n1 (configuration not stated),-11%,-6%
CCOC(=O)c1cnn(-c2cc(Oc3ccccc3)ncn2)c1N,/,-12%
O=C(CN(Cc1cccs1)C(=O)CNS(=O)(=O)c1ccc(Cl)cc1)NCC1CCCO1 (configuration not stated),-7%,-15%
Nc1nnc(-c2cccc([N+](=O)[O-])c2)s1,-12%,-13%
CN(CCN(C)C(=O)c1[nH]cnc1C(=O)Nc1ccccc1)C(=O)c1[nH]cnc1C(=O)Nc1ccccc1,-2%,-3%
CC(=O)NCCc1nc2cc(NS(=O)(=O)c3ccccc3)ccc2n1C,i,-1%
CCCn1cnnc1CNC(=O)C1CCC(=O)N(CCc2ccc(OC)cc2)C1 (configuration not stated),?,-9%
COc1ccc(S(=O)(=O)N2CCC(C(=O)N[C@H](C(=O)NCc3ccncc3)C(C)C)CC2)cc1,-7%,-7%
O=C(CCn1nc(-c2ccc(Cl)cc2)ccc1=O)N1CCC2(CC1)OCCO2,-9%,4%
Cc1ccc(OCC(=O)N2CCN(CC3CC4C=CC3C4)CC2)cc1 (configuration not stated),-8%,2%

# (list continues)
SMILES,Vaccinia mCherry,Vaccinia Venus
COC(=O)[C@]12C(=O)NC[C@H](CN1c1ccc(C(F)(F)F)cc1)N2C,i,-5%
CC(C)n1c(SCC(=O)Nc2ccccc2)nc2c1c(=O)[nH]c(=O)n2C,i,-9%
COc1cc(F)ccc1-c1csc(C(NC(C)=O)c2cccc(F)c2)n1 (configuration not stated),23%,-5%
CC1CCCC(C)N1C(=O)c1cc(-c2ccco2)on1 (configuration not stated),11%,-7%
CCNC(=S)N(CCc1c(C)[nH]c2ccc(C)cc12)Cc1cccs1,-16%,-16%
COC(=O)c1sccc1NC(=S)Nc1ccc(F)cc1,-2%,-10%
CCOC(=O)C1CCCN(S(=O)(=O)c2nc3nc(C)cc(C)n3n2)C1 (configuration not stated),-9%,-16%
C[C@@H]1CN([C@@H](C)CO)C(=O)CCCn2nncc2CO[C@H]1CN(C)C(=O)C1CCCCC1,i,-8%
COC(=O)c1sccc1S(=O)(=O)N(CC(=O)NCc1ccc(F)cc1)c1ccc(C)c(C)c1,-12%,-16%
CCOC(=O)c1c(-c2ccccc2)oc2ccc(OCC(O)CNCCN(C)C)cc12 (configuration not stated),11µM*,?
CCCCNC(=O)Cn1c2c(c(-c3ccccc3Cl)cc1=O)CCC2,-16%,-7%
O=C(Nc1ccc(Cl)cc1)NC1CCCCNC1=O (configuration not stated),i,-18%
CC(C)C(C)NC(=O)CSc1nnc(-c2c[nH]c3ccccc23)o1 (configuration not stated),-5%,-8%
CCc1ccc(CN(Cc2ccco2)c2cnc(S(C)(=O)=O)nc2C(=O)Nc2ccccc2Cl)cc1,-12%,-5%
CCN(CC)CCNC(=O)Cn1nc(-c2ccc(C)cc2)ccc1=O,-23%,-7%

# Of the compounds above, 2 contain a cyano group:
SMILES,Vaccinia mCherry,Vaccinia Venus
CC1(C)Cc2c(c(-c3ccco3)[nH]c(=O)c2C#N)CO1,i,3%
C=CCn1c(SCC#N)nc2c(c1=O)C(C)(C)Cc1ccccc1-2,/,-27%

# Exported with two lines to a compound: part of the list above
# The line under a structure holds: Vaccinia mCherry, Vaccinia Venus
COC(=O)[C@]12C(=O)NC[C@H](CN1c1ccc(C(F)(F)F)cc1)N2C
  i, -5%
CC(C)n1c(SCC(=O)Nc2ccccc2)nc2c1c(=O)[nH]c(=O)n2C
  i, -9%
COc1cc(F)ccc1-c1csc(C(NC(C)=O)c2cccc(F)c2)n1 (configuration not stated)
  23%, -5%
CC1CCCC(C)N1C(=O)c1cc(-c2ccco2)on1 (configuration not stated)
  11%, -7%
CCNC(=S)N(CCc1c(C)[nH]c2ccc(C)cc12)Cc1cccs1
  -16%, -16%
COC(=O)c1sccc1NC(=S)Nc1ccc(F)cc1
  -2%, -10%
CCOC(=O)C1CCCN(S(=O)(=O)c2nc3nc(C)cc(C)n3n2)C1 (configuration not stated)
  -9%, -16%

# The listing continues.
SMILES,Vaccinia mCherry,Vaccinia Venus
Cc1ccc(-c2cc(N)n(-c3ccc(C)cc3)n2)cc1,?,-13%&-24%
Cc1ccc(NC(=S)NCC(C)CSc2ccc(Cl)cc2)cc1 (configuration not stated),-8%,-6%
O=C(Cc1ccc([N+](=O)[O-])cc1)N1N=C2CCCCC2C1(O)C(F)(F)F (configuration not stated),-5%,-9%
CC12CCC(C(=O)Nc3ccccc3Br)(C/C1=N\O)C2(C)C (configuration not stated),-16%,3%
Cc1ccc(Nc2ncnc(N)n2)cc1,i,-16%
O=C(COc1ccc2c3c(c(=O)oc2c1)CCCC3)NCc1cccnc1,-7%,-11%
CC(=O)Nc1ccc(S(=O)(=O)Nc2cc(S(=O)(=O)N3CCCCC3)ccc2O)cc1,-18%,-14%
Cc1ccccc1C(=O)OCC(=O)N1CC(=O)Nc2ccccc21,-8%,-16%
C=Cc1cc2c(cc1O)CCC1C2CCC2(C)C(O)CCC12 (configuration not stated),?,?
COc1cc(-c2nnc(NC(=O)CCS(=O)(=O)c3ccc(F)cc3)o2)cc(OC)c1OC,?,?
CCOc1ccc(NC(=O)CN(C)C(=O)c2ccc(=O)[nH]c2)cc1OCC,i,-3%
Cn1c(=O)c2c(nc(SCC(=O)c3cccs3)n2Cc2ccc(F)cc2)n(C)c1=O,-16%,-12%
O=C(NCCc1nc2ccccc2n1Cc1c(F)cccc1Cl)c1ccco1,-16%,-18%
CC(=O)N1c2c(cc(Br)cc2S(=O)(=O)N2CCN(c3ccccc3F)CC2)CC1C (configuration not stated),-13%,-15%
CC[C@H](C)[C@@H](CO)NC(=O)[C@H]1O[C@@H](n2ccc(=O)[nH]c2=O)[C@H](O)[C@@H]1O,11%,4%
CC1=NOC(=O)/C1=C/c1ccc(O)c(Br)c1,i,-4%
O=S(=O)(NCC1CCN(c2ccc(S(=O)(=O)N3CCOCC3)cc2)CC1)c1ccc(F)cc1,?,-24%
COCCC(=O)NC12CC3CC(CC(C3)C1)C2,3%,106%[activator]
Cc1nnc(SCC(=O)Nc2ccc(F)cc2F)n(N)c1=O,i,-18%
CC1CCN(C(=O)c2cc(S(=O)(=O)N3CCCCC3)c[nH]2)CC1,i,3%
CCc1ccc(CNC(=O)Cc2ccc(NC(=O)N3CCSc4ncccc43)cc2)cc1,-25%,-21%
COc1ccccc1N1CCN(C(c2cccs2)C(C)NS(=O)(=O)c2ccccc2)CC1 (configuration not stated),-27%,?
COc1cc(OC)cc(C(=O)N(Cc2ccco2)Cc2cccs2)c1,-10%,-21%
COc1ccc2c(c1)c(C(=O)CN(C)C)c(C)n2C,1%,-9%
CCOc1ccccc1OCCCOc1ccc(C)cc1Cl,/,?
COC(=O)c1cn(C(=O)/C=C/c2ccc(OC)c(OC)c2)c2ccccc12,-14%,-11%
CCCCNC(=O)C[C@@H]1C[C@@]2(C(=O)OCC)CCCC=C2N(Cc2ccc(Cl)cc2Cl)C1=O,-10%,-7%
O=C(COC(=O)c1cc(=O)[nH]c2ccccc12)Nc1ccc(F)cc1,i,-13%
O=C(CSc1ccc2nc(-c3ccccc3)cn2n1)Nc1ccccc1,5%,-3%
COc1ccc(N(CC(=O)O)S(=O)(=O)c2cccnc2)cc1,/,-19%
C=CCN1C2CCCC1CC(NC(=O)Nc1cc(C)cc(C)c1)C2 (configuration not stated),-14%,-10%
CCC1=NN(C(=O)C(=O)NCCc2ccccc2)C(O)(C(F)(F)F)C1 (configuration not stated),-13%,-14%
O=C(CCc1nc(C2=CCN(Cc3cccc(Cl)c3)CC2)no1)Nc1ccccc1F,-14%,-11%
